NOMO-1 viab: STK33 inhibitor candidate reducing NOMO-1 cell viability; AID 2330; inhibition, % (test concentration not listed); NOMO-1 AML viability, CellTiter-Glo luminescence, 72 h; actives 7.5% (n = 37,000);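 active = most replicates above 80%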;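 note: wells of about 30 µL received 25 nL stock; 0% = median of vehicle wells and 100% = reference inhibitor level; the first replicate is given; inactives centre near 10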
* marks the source's active call; other numbers are inactive results. This is a subset; rates above refer to the full screens.

> Cc1cc(C(=O)Nc2cccc3c2O[C@@H](CN(C)S(=O)(=O)c2ccc(F)cc2)[C@H](C)CN([C@H](C)CO)C3=O)n(C)n1
- NOMO-1 viab = -12.9
> CCOC(=O)c1c(NC(=O)CSc2ncn[nH]2)sc2c1CCC2
- NOMO-1 viab = -5.9
> C[C@H](CO)N1C[C@H](C)[C@@H](CN(C)C(=O)Nc2ccc(F)cc2)Oc2ccc(NC(=O)c3ccncc3)cc2C1=O
- NOMO-1 viab = 8.8
> COC(=O)CSc1nc(N(C)C)nc(N(C)C)n1
- NOMO-1 viab = 30.6
> C[C@H]1CN([C@@H](C)CO)C(=O)c2cc(NC(=O)Nc3ccc(C(F)(F)F)cc3)ccc2O[C@@H]1CN(C)Cc1ccc(Cl)c(Cl)c1
- NOMO-1 viab = 117.0*
> C[C@H](CO)N1C[C@H](C)[C@H](CN(C)C(=O)Nc2ccc(F)cc2)Oc2ccc(NC(=O)CCC(F)(F)F)cc2CC1=O
- NOMO-1 viab = 10.3
> C[C@@H]1CN([C@H](C)CO)C(=O)Cc2cc(N(C)C)ccc2O[C@H]1CN(C)C(=O)Nc1ccc(C(F)(F)F)cc1
- NOMO-1 viab = -0.9
> Nc1cc(N)nc(SCC(=O)N(c2ccccc2)c2ccccc2)n1
- NOMO-1 viab = 13.3
> Cn1c(SCC(=O)Nc2ccc(I)cc2)nnc1-c1ccc(Cl)cc1
- NOMO-1 viab = -1.1
> C[C@@H]1CN([C@@H](C)CO)C(=O)c2cccc(NS(=O)(=O)c3ccccc3)c2O[C@H]1CN(C)C(=O)Nc1ccccc1
- NOMO-1 viab = 7.3
> CC(C)NC(=O)Nc1ccc2c(c1)CC(=O)N([C@@H](C)CO)C[C@@H](C)[C@@H](CN(C)C(=O)Nc1ccc(C(F)(F)F)cc1)O2
- NOMO-1 viab = 10.5
> CN([NH2+][O-])c1cc(O)ccc1O
- NOMO-1 viab = 20.3
> C[C@H]1CN([C@@H](C)CO)C(=O)c2cc(NC(=O)C3CCCCC3)ccc2O[C@H]1CN(C)Cc1ccc2c(c1)OCO2
- NOMO-1 viab = 91.7*
> CC(=O)N[C@H]1[C@H](O[C@H]2CC[C@@]3(C)C(CC[C@]4(C)C3CC=C3[C@@H]5CC(C)(C)CC[C@]5(C(=O)OC5OCC(O)C(O)C5O)C(O)C[C@]34C)C2(C)C)O[C@H](COC2OCC(O)C(OC3OCC(O)C(O)C3O)C2O)[C@@H](O[C@@H]2O[C@@H](C)[C@H](O)[C@@H](O)[C@H]2O[C@@H]2O[C@@H](C)[C@H](O)[C@@H](O)[C@H]2O)[C@@H]1O (stereo partly specified)
- NOMO-1 viab = 52.3
> FC(F)(F)Oc1ccc(OCc2n[nH]c(=S)o2)cc1
- NOMO-1 viab = 5.4

The closing 2 entries of the part before are carried over, then new ones follow.
> CC(=O)N[C@H]1[C@H](O[C@H]2CC[C@@]3(C)C(CC[C@]4(C)C3CC=C3[C@@H]5CC(C)(C)CC[C@]5(C(=O)OC5OCC(O)C(O)C5O)C(O)C[C@]34C)C2(C)C)O[C@H](COC2OCC(O)C(OC3OCC(O)C(O)C3O)C2O)[C@@H](O[C@@H]2O[C@@H](C)[C@H](O)[C@@H](O)[C@H]2O[C@@H]2O[C@@H](C)[C@H](O)[C@@H](O)[C@H]2O)[C@@H]1O (stereo partly specified)
- NOMO-1 viab = 52.3
> FC(F)(F)Oc1ccc(OCc2n[nH]c(=S)o2)cc1
- NOMO-1 viab = 5.4
> Cc1noc(C)c1S(=O)(=O)Nc1ccc2c(c1)C(=O)N([C@H](C)CO)C[C@@H](C)[C@H](CN(C)S(=O)(=O)c1ccc(F)cc1)O2
- NOMO-1 viab = -6.6
> O=C(Nc1ccc(-c2nc3ccccc3o2)c(O)c1)c1ncn[nH]1
- NOMO-1 viab = 60.0
> CCOc1ccc(-c2nc3ccc(-c4nc5ccc(N6CCN(C)CC6)cc5[nH]4)cc3[nH]2)cc1
- NOMO-1 viab = 115.7*
> C[C@@H]1CN([C@@H](C)CO)C(=O)c2cc(NC(=O)Nc3cccc4ccccc34)ccc2O[C@@H]1CN(C)C(=O)Nc1ccc(C(F)(F)F)cc1
- NOMO-1 viab = 51.9
> C[C@@H]1CN([C@H](C)CO)C(=O)c2cccc(N(C)C)c2O[C@H]1CN(C)S(C)(=O)=O
- NOMO-1 viab = 24.7
> C[C@H](CO)N1C[C@H](C)[C@H](CN(C)C(=O)Nc2ccc3c(c2)OCO3)Oc2ccc(NC(=O)CCCCCC(=O)Nc3ccccc3N)cc2C1=O
- NOMO-1 viab = 13.9
> C[C@H](CO)N1C[C@H](C)[C@@H](CN(C)C(=O)Nc2ccc(C(F)(F)F)cc2)Oc2c(NC(=O)c3cnccn3)cccc2C1=O
- NOMO-1 viab = 4.5
> CCOC(=O)c1c(NC(=S)NCc2cc(C)n(C)n2)sc2c1CCCC2
- NOMO-1 viab = 19.8
> CNC[C@@H]1Oc2ccc(NC(=O)Nc3cccc4ccccc34)cc2CC(=O)N([C@@H](C)CO)C[C@@H]1C
- NOMO-1 viab = 11.8
> Cc1noc(C)c1NC(=O)N(C)C[C@H]1Oc2c(NC(=O)Nc3cccc4ccccc34)cccc2C(=O)N([C@H](C)CO)C[C@H]1C
- NOMO-1 viab = 1.6
> COc1ccc(S(=O)(=O)Nc2ccc3c(c2)C(=O)N([C@H](C)CO)C[C@H](C)[C@H](CN(C)C(=O)Nc2ccc(F)cc2)OCCCC[C@@H](C)O3)cc1
- NOMO-1 viab = 15.2
> C[C@H]1CN([C@@H](C)CO)C(=O)Cc2cc(NC(=O)Nc3ccc(F)cc3)ccc2O[C@H]1CN(C)Cc1ccc(C(=O)O)cc1
- NOMO-1 viab = 5.9
> C[C@@H]1CN([C@@H](C)CO)C(=O)c2cccc(NC(=O)C3CC3)c2O[C@@H]1CN(C)Cc1ccccc1
- NOMO-1 viab = 4.5
> Cc1noc(C)c1NC(=O)N(C)C[C@@H]1OCCCC[C@@H](C)Oc2ccc(NS(C)(=O)=O)cc2C(=O)N([C@H](C)CO)C[C@@H]1C
- NOMO-1 viab = -2.0
> C[C@@H]1CN([C@H](C)CO)C(=O)c2cccc(NS(=O)(=O)c3cn(C)cn3)c2O[C@@H]1CN(C)C(=O)Nc1ccc(C(F)(F)F)cc1
- NOMO-1 viab = 5.8

> C[C@@H]1CCCCO[C@H](CN(C)C(=O)Cc2ccccc2)[C@@H](C)CN([C@H](C)CO)C(=O)c2cc(NS(=O)(=O)c3cn(C)cn3)ccc2O1
- NOMO-1 viab = 11.6
> CC1CC(=O)c2cnc(N3CCc4ccccc43)nc2C1 (stereo unspecified)
- NOMO-1 viab = -19.4
> C[C@H](CO)N1C[C@H](C)[C@H](CN(C)S(=O)(=O)c2ccccc2)Oc2ccc(NC(=O)Cn3cnnn3)cc2CC1=O
- NOMO-1 viab = 24.8
> COc1ccc(CN(C)C[C@@H]2Oc3ccc(NC(=O)Nc4c(C)noc4C)cc3CC(=O)N([C@H](C)CO)C[C@H]2C)cc1
- NOMO-1 viab = 10.4
> Cn1cnnc1SC1CCCCC1NS(=O)(=O)c1ccc(Cl)cc1 (stereo unspecified)
- NOMO-1 viab = -13.4
> Cc1cc(C)c2nc(-c3ccccn3)cc(C(=O)NCCc3ccc(S(N)(=O)=O)cc3)c2c1
- NOMO-1 viab = 26.5
> C[C@H]1CN([C@@H](C)CO)C(=O)c2cc(NC(=O)CCC(F)(F)F)ccc2O[C@@H]1CN(C)CC1CC1
- NOMO-1 viab = 1.5
> COc1ccc(NC(=O)N(C)C[C@H]2Oc3ccc(NC(=O)Nc4c(C)noc4C)cc3CC(=O)N([C@H](C)CO)C[C@H]2C)cc1
- NOMO-1 viab = -4.3
> Cc1cc2cc3c(C)cc(=O)oc3c(C)c2o1
- NOMO-1 viab = 15.6
> C[C@H](CO)N1C[C@H](C)[C@H](CN(C)C(=O)Nc2ccc(C(F)(F)F)cc2)Oc2ccc(N(C)C)cc2C1=O
- NOMO-1 viab = -2.9
> C[C@H](CO)N1C[C@H](C)[C@@H](CN(C)S(=O)(=O)c2ccccc2)Oc2c(NC(=O)C3CC3)cccc2C1=O
- NOMO-1 viab = 11.8
> CN(CC(=O)Nc1ccccc1Br)S(=O)(=O)c1ccc2ccccc2c1
- NOMO-1 viab = -2.6
> Cc1ccccc1NC(=O)CSc1nc(-c2ccc(Cl)cc2)cc(C(F)(F)F)n1
- NOMO-1 viab = 95.0*
> C[C@@H]1CN([C@@H](C)CO)C(=O)c2cc(NC(=O)C3CC3)ccc2O[C@H]1CN(C)S(=O)(=O)c1ccc(Cl)cc1
- NOMO-1 viab = -1.5
> COc1ccc(CN(C)C[C@H]2Oc3ccc(NS(C)(=O)=O)cc3C(=O)N([C@H](C)CO)C[C@@H]2C)cc1
- NOMO-1 viab = -10.6

A run of entries from further up, for reference:
> Cc1cc2cc3c(C)cc(=O)oc3c(C)c2o1
- NOMO-1 viab = 15.6
> C[C@H](CO)N1C[C@H](C)[C@H](CN(C)C(=O)Nc2ccc(C(F)(F)F)cc2)Oc2ccc(N(C)C)cc2C1=O
- NOMO-1 viab = -2.9
> C[C@H](CO)N1C[C@H](C)[C@@H](CN(C)S(=O)(=O)c2ccccc2)Oc2c(NC(=O)C3CC3)cccc2C1=O
- NOMO-1 viab = 11.8
> CN(CC(=O)Nc1ccccc1Br)S(=O)(=O)c1ccc2ccccc2c1
- NOMO-1 viab = -2.6
> Cc1ccccc1NC(=O)CSc1nc(-c2ccc(Cl)cc2)cc(C(F)(F)F)n1
- NOMO-1 viab = 95.0*

(more compounds)
> C[C@H](CO)N1C[C@H](C)[C@@H](CN(C)C(=O)Nc2ccc3c(c2)OCO3)Oc2ccc(NC(=O)c3ccncc3)cc2C1=O
- NOMO-1 viab = 3.1
> CC(C)NC(=O)Nc1ccc2c(c1)C(=O)N([C@H](C)CO)C[C@@H](C)[C@@H](CN(C)Cc1ccc(C(F)(F)F)cc1)O2
- NOMO-1 viab = 17.5
> Cc1cc(=O)oc2cc(OCc3cccc(F)c3)ccc12
- NOMO-1 viab = 25.5
> C[C@@H]1CN([C@@H](C)CO)C(=O)c2cc(NS(=O)(=O)c3ccc(Cl)cc3)ccc2O[C@@H]1CN(C)S(=O)(=O)c1ccccc1
- NOMO-1 viab = 22.7
> Cc1noc(C)c1NC(=O)Nc1ccc2c(c1)C(=O)N([C@@H](C)CO)C[C@H](C)[C@@H](CN(C)Cc1ccc(C(=O)Nc3ccccc3N)cc1)O2
- NOMO-1 viab = -10.1
> C[C@@H]1CCCCO[C@@H](CN(C)Cc2ccc(C(=O)O)cc2)[C@@H](C)CN([C@H](C)CO)C(=O)c2cc(N(C)C)ccc2O1
- NOMO-1 viab = -21.0
> Cc1ccc(S(=O)(=O)N(C)C[C@@H]2OCCCC[C@@H](C)Oc3ccc(NC(=O)NC4CCCCC4)cc3C(=O)N([C@H](C)CO)C[C@@H]2C)cc1
- NOMO-1 viab = 17.7
> C[C@H](CO)N1C[C@H](C)[C@H](CN(C)S(=O)(=O)c2ccc(Cl)cc2)Oc2ccc(NC(=O)Nc3ccc(F)cc3)cc2CC1=O
- NOMO-1 viab = 124.8*
> COc1ccc(CN(C)C[C@@H]2Oc3ccc(NC(=O)Nc4ccccc4)cc3C(=O)N([C@H](C)CO)C[C@@H]2C)cc1
- NOMO-1 viab = 17.6
> C=C1C(=O)OC2CC(C)C3(/C=C/C(C)=O)OC3CC12 (stereo unspecified)
- NOMO-1 viab = 118.1*
> C[C@@H]1CN([C@@H](C)CO)C(=O)Cc2cc(NC(=O)Cc3cn(C)c4ccccc34)ccc2O[C@@H]1CN(C)S(=O)(=O)c1ccccc1
- NOMO-1 viab = 12.4
> Cc1cccc(C)c1Nc1scc(C)[n+]1C
- NOMO-1 viab = -2.2
> CNC[C@@H]1Oc2c(NS(=O)(=O)c3ccc(OC)cc3)cccc2C(=O)N([C@H](C)CO)C[C@@H]1C
- NOMO-1 viab = 14.1
> Cc1cccc(NC(=O)CSc2nnc3n(C)c4ccccc4n23)c1
- NOMO-1 viab = 33.2
> O=C(COc1ccc2ccccc2c1)Nc1ccccc1C(=O)Nc1ccc(F)cc1
- NOMO-1 viab = 17.3

The final four entries of the section above lead into the next.
> Cc1cccc(C)c1Nc1scc(C)[n+]1C
- NOMO-1 viab = -2.2
> CNC[C@@H]1Oc2c(NS(=O)(=O)c3ccc(OC)cc3)cccc2C(=O)N([C@H](C)CO)C[C@@H]1C
- NOMO-1 viab = 14.1
> Cc1cccc(NC(=O)CSc2nnc3n(C)c4ccccc4n23)c1
- NOMO-1 viab = 33.2
> O=C(COc1ccc2ccccc2c1)Nc1ccccc1C(=O)Nc1ccc(F)cc1
- NOMO-1 viab = 17.3
> C[C@@H]1CN([C@@H](C)CO)C(=O)c2cc(NS(=O)(=O)c3cn(C)cn3)ccc2O[C@@H]1CN(C)C(=O)Nc1cccc2ccccc12
- NOMO-1 viab = -7.3
> Cc1ccc(S(=O)(=O)Nc2cccc3c2O[C@@H](CN(C)Cc2ccncc2)[C@H](C)CN([C@H](C)CO)C3=O)cc1
- NOMO-1 viab = -18.7
> COC(=O)c1ccccc1NC(=O)CC1Sc2ccc(C(F)(F)F)cc2NC1=O (stereo unspecified)
- NOMO-1 viab = 20.3
> COc1ccc(S(=O)(=O)Nc2ccc3c(c2)CC(=O)N([C@H](C)CO)C[C@@H](C)[C@@H](CN(C)Cc2ccc(C(=O)Nc4ccccc4N)cc2)O3)cc1
- NOMO-1 viab = 91.8*
> C[C@H]1CN([C@@H](C)CO)C(=O)Cc2cc(NS(=O)(=O)c3ccc(F)cc3)ccc2O[C@@H]1CN(C)S(=O)(=O)c1cn(C)cn1
- NOMO-1 viab = 16.8
> Cc1occc1-c1nnc(SCC(=O)Nc2cccc(Cl)c2)n1-c1ccccc1
- NOMO-1 viab = -3.6
> C[C@@H]1CCCCO[C@H](CN(C)S(=O)(=O)c2cn(C)cn2)[C@@H](C)CN([C@H](C)CO)C(=O)c2cc(NS(=O)(=O)c3ccc(F)cc3)ccc2O1
- NOMO-1 viab = -1.7
> CC(C)c1ccc(OCC(=O)Nc2ccc(O)cc2C(=O)O)cc1
- NOMO-1 viab = -2.8
> O=C(CSc1ncnc2sc3c(c12)CCC3)NCC1CCCO1 (stereo unspecified)
- NOMO-1 viab = -9.4
> Cc1noc(C)c1NC(=O)Nc1ccc2c(c1)C(=O)N([C@@H](C)CO)C[C@@H](C)[C@H](CN(C)Cc1ccc3c(c1)OCO3)O2
- NOMO-1 viab = 2.2
> COc1ccc(NC(=O)Nc2cccc3c2O[C@@H](CN(C)CC2CCCCC2)[C@@H](C)CN([C@@H](C)CO)C3=O)cc1
- NOMO-1 viab = 23.3

Source: PubChem BioAssay
